# gsp agonist: qHTS for Agonist of gsp, the Etiologic Mutation Responsible for Fibrous Dysplasia/McCune-Albright Syndrome: qHTS | 340,000 compounds, 0.13% hits | gsp mutant cells, cAMP HTRF, 30 min; control for the full effect not named in the record | Potency, µM (titrated, usually from 76.9 µM), for the others: at the top dose activation (cAMP increase), hits mostly activators; active = well fitted activation curve with a large enough effect; inconclusive = small, poorly fitted or top-dose-only effect, or another doubt; inactive = no such curve, though single readings can be large or run the other way; cell line not stated here;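 note: phosphodiesterase inhibitor Ro 20-1724 added with compounds to block cAMP breakdown; potency is the fitted concentration of half-maximal effect; nearly all actives have a fitted effect of over 60% in size; about a fifth of the inactives were tested at one dose only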
#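 Cells stably selected in G418 were plated at 2000/well, grown 16-24 hr, then given compounds in DMSO with the PDE inhibitor […] (300 uM solution added) for 30 min at 37C; cAMP was read by HTRF.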
# TRPML1 inh: qHTS for Inhibitors of the Human Mucolipin Transient Receptor Potential 1 (TRPML1); AID 624415, 2012; TRPML1-inducible cells, Ca2+ dye fluorescence, FDSS; active compounds read low; inhibition of EC80 agonist-evoked calcium signal; 390,000 compounds, 0.02% hits; Mucolipin-1 (Homo sapiens), Q9GZU1; activity change, negative = inhibition, % (concentration not given with the values); in the data active means activity change below about -50%; inconclusive means about -30% to -50%; inactive means above about -30%;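 note: stimulus is agonist 54-4 at its EC80 concentration; % is set by controls: 0 for no effect and ±100 for the full control effect; the text of the record puts the active cut at -80%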
# Target sequence (Q9GZU1 whole entry, looked up): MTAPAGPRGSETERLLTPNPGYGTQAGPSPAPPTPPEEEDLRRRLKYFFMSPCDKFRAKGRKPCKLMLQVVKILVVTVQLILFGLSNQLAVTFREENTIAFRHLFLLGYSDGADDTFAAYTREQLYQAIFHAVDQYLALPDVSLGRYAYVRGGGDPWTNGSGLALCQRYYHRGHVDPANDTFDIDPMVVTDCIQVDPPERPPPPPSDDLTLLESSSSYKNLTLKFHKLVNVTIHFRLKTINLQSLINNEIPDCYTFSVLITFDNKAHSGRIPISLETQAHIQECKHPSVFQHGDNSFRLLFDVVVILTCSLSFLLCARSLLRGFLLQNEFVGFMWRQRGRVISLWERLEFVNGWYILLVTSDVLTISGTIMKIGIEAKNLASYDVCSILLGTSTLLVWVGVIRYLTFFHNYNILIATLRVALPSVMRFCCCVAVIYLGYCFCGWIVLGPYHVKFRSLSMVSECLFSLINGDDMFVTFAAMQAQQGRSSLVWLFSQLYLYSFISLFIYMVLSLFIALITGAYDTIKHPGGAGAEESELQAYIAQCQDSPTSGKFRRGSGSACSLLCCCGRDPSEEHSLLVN
#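 TRPML1-DL cells, Tet-induced overnight (~16 h, 37 °C) at 1,500 cells/well, were loaded with Ca8 no-wash dye plus quencher for 45-90 min at room temperature. Compounds were pinned during FDSS kinetic reading; agonist 54-4 at EC80 (4 uM final) then added.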
# Menin MLL FP FL: qHTS Assay for Inhibitors Targeting the Menin-MLL Interaction in MLL Related Leukemias: Competition With Fluorescein Labeled MLL-derived Peptide; FP activity change, % at 61.4 µM; Fluorescence polarization, fluorescein-MLL peptide displacement from menin; 290,000 tested, under 10 active; inconclusive = falling polarisation curve, or a change in total fluorescence; inactive = total fluorescence flat and polarisation flat or rising; no compound was filed as active; the % refers to the polarisation; negative = inhibition;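 note: % of control where 0% means no effect; inhibitors lower the polarisation; unlabelled MLL peptide was the positive control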
# gsp antagonist: qHTS for Antagonists of gsp, the Etiologic Mutation Responsible for Fibrous Dysplasia/McCune-Albright Syndrome: qHTS. gsp-mutant cells, cAMP HTRF, 30 min; control for the full effect not named in the record. Potency, µM (highest dose often 76.9 µM), for inactives: at the highest dose activity change, negative = inhibition, most hits filed as inhibitors. 340,000 compounds, 0.4% hits; active = falling curve of any shape with a large fitted effect; inconclusive = falling curve, mostly with a smaller effect; inactive = flat or rising curve; cell line not stated here;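 note: intracellular cAMP measured with PDE inhibitor Ro 20-1724 present during compound exposure; potency is the fitted concentration of half-maximal effect; % is set by controls: 0 for no effect and ±100 for the full control effect; nearly all actives have a fitted effect of over 65% in size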
#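 HTRF cAMP read-out (cAMP-d2 plus anti-cAMP antibody-K in lysis buffer, 30 min RT). Before lysis, cells are exposed to compounds with […] for 30 min at 37C in DPBS containing Ca/Mg, BSA and Tween 20.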
# TRPML1 ag: qHTS for Agonists of the Human Mucolipin Transient Receptor Potential 1 (TRPML1); Mucolipin-1 (Homo sapiens), Q9GZU1; TRPML1-expressing cells, Ca2+ dye fluorescence, FDSS; host cell line not named in the record; reference of the full effect not given here; activation, % (no concentration beside the values); 410,000 compounds, 0.12% hits; in the data active = activation above about 50%; inconclusive = about 30% to 50%; inactive = below about 30%; note: 0% is about no effect; the text of the record puts the active cut at 80%
#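 Cells: TRPML1-DL, 1X Tet inducer, ~16 h at 37 degrees C/5% CO2. Dye: ABD Ca8 no-wash + quencher, 45-90 min RT. Read: 10 s baseline, compound add, 110 s agonist phase; 54-4 EC80 (4uM final), 110 s antagonist phase.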
# ClpP mod: qHTS Assay for Activators of ClpP. 340,000 compounds, 1.9% hits. Potency, µM (series often up to 57.5 µM), without a hit: at the top dose activity change, negative = active. purified B. subtilis ClpP, FRET peptide cleavage, 20 min. ATP-dependent Clp protease proteolytic subunit (Bacillus subtilis (strain 168)), P80244; active = well fitted falling curve with a large enough effect; inconclusive = small, poorly fitted or top-dose-only effect; inactive = no such curve, though single readings can be large or run the other way; note: potency is the fitted concentration of half-maximal effect; the source files actives as falling curves though it sought activators and does not explain the sign; nearly all actives have a fitted effect of over 65% in size; many hits overshoot -100%
# Target sequence (P80244 whole entry, looked up): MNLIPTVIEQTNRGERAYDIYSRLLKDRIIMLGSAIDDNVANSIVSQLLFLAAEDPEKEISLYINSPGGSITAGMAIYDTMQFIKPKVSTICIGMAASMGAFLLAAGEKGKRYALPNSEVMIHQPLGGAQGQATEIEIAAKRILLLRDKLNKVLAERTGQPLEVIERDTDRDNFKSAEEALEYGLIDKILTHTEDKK
#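 Purified B. subtilis ClpP, 10 microg/mL final in Tris/HCl pH8 with KCl, BSA, glycerol and Tween-20, cleaved an Abz/nitrotyrosine-quenched decapeptide. Fluorescence (ex 320, em 430) was read at 0 and 20 min at room temperature. Delta was normalized to 5.8 microM ADEP and DMSO/no-enzyme controls.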
# An asterisk follows results filed as active; ? = inconclusive; · = no result given; & = joins results of further samples; [ ] = remark or other dose.
SMILES,gsp agonist,TRPML1 inh,Menin MLL FP FL,gsp antagonist,TRPML1 ag,ClpP mod
Cc1cccc(-n2nnnc2SCC(=O)c2cc(C)n(CC3CCCO3)c2C)c1 (configuration not stated),10%,11,6.8,-9%,2.0,-5.1%
CCc1ccccc1NC(=O)C1CC(c2ccc(F)cc2)=NO1 (configuration not stated),?,2,-0.6,8%,0.6,0.0%
CCN1CCN(CCCNC(=O)c2ccc3c(=O)n(CCc4ccccc4)c(=O)[nH]c3c2)CC1,22%[15.4 µM],-2,-1.7,3%,-0.1,·
CCOC(=O)CNC(=O)CSc1ncnc2c1cnn2-c1ccccc1,28%,0,3.9,-12%,-1.0,0.7%
Cc1ccsc1CN(C)CC(=O)N(C)CC(=O)Nc1c(Cl)cccc1Cl,3%,24,·,·,-0.5,1.6%
O=S(=O)(c1ccc(Cl)cc1)c1nnn2c1nc(NC1CCCCC1)c1sccc12,·,8,·,·,1.1,?
CCOC(=O)c1nc(NCc2ccccc2)c2ccccc2n1,21%[15.4 µM],-7,-1.1,-33%,-0.3,·
CCC(C)(NC(=O)c1cccc(N2C(=O)CSC2c2ccccc2)c1)C(=O)Nc1ccccc1C (configuration not stated),-54%[inhibitor],-3,-0.9,-17%,0.5,-2.0%
COC(=O)c1ccc(CSc2ccccc2NC(=S)Nc2cccc(C(F)(F)F)c2)o1,-3%,-10,·,·,-0.7,-1.3%
O=C(O)CCCC(=O)Nc1ccccc1C(=O)N1CCOCC1,-13%,17,-3.2,9%,0.1,·
Cc1cc(C)n2nc(SCc3ccccc3C(=O)O)nc2n1,?,-14,-2.7,6%,0.3,-0.9%
CC1=NNC(=O)C1Cc1c(Cl)cccc1Cl (configuration not stated),11%[15.4 µM],2,·,-13%,2.0,-2.7%
CC1(C)CC(NC(=O)C2CCN(S(=O)(=O)c3ccccc3C(F)(F)F)CC2)CC(C)(C)N1,5%,0,·,5%,-0.1,1.3%
O=C(Nc1ccc(C(=O)O)cc1)/C(=C\c1ccco1)NC(=O)c1ccccc1,-3%[15.4 µM],-12,5.9,4%,0.5,·
COc1ccccc1/C=N/n1c(N)c(S(=O)(=O)c2cccs2)c2nc3ccccc3nc21,?,6,·,10%,0.0,0.4%
CC1=C(C(=O)N2CCN(c3cc(C)ccc3C)CC2)C2(CCC(C)CC2)OC1=O (configuration not stated),·,34,3.5,·,1.2,-2.8%
O=C1c2ccccc2C(=O)N1CSc1nnc(Nc2ccccc2)s1,-2%[15.4 µM],6,2.6,-5%,-0.8,·
COc1ccc(-c2coc3cc(O[C@@H]4O[C@H](CO)[C@@H](O)[C@H](O)[C@H]4O)c(OC)cc3c2=O)cc1,11%,-2,·,13%,0.3,-2.6%
Cc1c(NC2=CC(=O)CC(C)(C)C2)c(=O)n(-c2ccccc2)n1C,-10%[15.4 µM],4,-2.0,-26%,0.2,1.0%
COc1ccc(-c2nc3ncccn3c2Nc2ccccc2)cc1,-1%[15.4 µM],-4,13,-22%,1.6,·
COc1ccc(C(CNC(=O)CN2C(=O)NC3(CCCC3)C2=O)N(C)C)cc1 (configuration not stated),39%,-10,·,3%,0.0,-0.7%
CNC(=S)c1cc(C(C)(C)C)c(O)c(C(C)(C)C)c1,?,·,3.4,-4%,·,1.2%
CCc1ccc(CN2C(=O)c3ccccc3C2C(=O)NCC2CCCO2)cc1 (configuration not stated),-10%[15.4 µM],7,-2.5,-4%,0.1,·
Cc1ccc(C)n1CCN1CCN(S(=O)(=O)c2ccc(F)cc2F)CC1,-29%,-2,-0.9,5%,2.2,·
Cc1onc(-c2c(F)cccc2Cl)c1C(=O)N1CCc2ccccc2C1,4%,7,-4.3,?,-0.7,-1.7%
O=C(NCc1ccc2c(c1)OCO2)C1CCCN(S(=O)(=O)c2cccc3nonc23)C1 (configuration not stated),?,-13,?,-4%,-0.7,3.2%
O=C(N/N=C/c1cccnc1)c1cc(-c2ccccc2OCc2ccccc2)n[nH]1,2%[15.4 µM],-2,5.0,-18%,1.7,-9.3%
COc1ccc(/C=C/C(=O)NC(=S)NNC(=O)[C@H]2C[C@@H]2c2ccccc2)cc1OC,1%,-11,-5.4,-2%,-1.4,0.4%
O=C(NCCCN1CCOCC1)c1cc(Cl)ccc1[N+](=O)[O-],0%,-18,-7.1,9%,-0.4,1.2%
Cc1c(C(=O)N(C)c2ccc(Cl)cc2)cnn1-c1ccccc1,-24%,-25,0.4,-9%,-0.5,·
CCn1cc(S(=O)(=O)CC(=O)Nc2cc(C)ccc2C)c2ccccc21,-25%,8,3.8,2%,0.6,1.0%
CC1(C)CC(=O)c2cc(C(=O)NNc3ccccc3)c(=O)n(-c3ccccc3)c2C1,11%[15.4 µM],8,-5.8,-28%,-0.6,·
COc1cccc(OCCCOc2ccccc2C(C)C)c1,-70%[inhibitor],-5,3.8,-3%,2.0,0.6%
CCN(C(=O)CN(C)Cc1c(F)cccc1Cl)c1c(N)n(Cc2ccccc2)c(=O)[nH]c1=O,9%[15.4 µM],-5,2.3,4%,-0.5,-2.3%
Cc1ccc(Nc2ccc(C(F)(F)F)cc2[N+](=O)[O-])cc1,-1%,0,4.4,-8%,-0.3,1.7%
N#CC1=C(N)Oc2cc(N)ccc2C1c1ccccc1 (configuration not stated),5%,4,·,-9%,0.0,·
O=C(Nc1ccccc1N1CCCC1)c1cc2ccccc2o1,-24%,2,-4.2,-26%,1.3,-12%
CCC(CO)Nc1nc(CN2CCCCC2)nc2scc(-c3ccccc3)c12 (configuration not stated),-46%[inhibitor],15,8.9,9%,0.9,·
CC1CCN(C(=O)Cn2cc(C(F)(F)F)ccc2=O)c2ccccc2S1 (configuration not stated),9%,7,·,3%,-0.8,-0.7%
CC(=O)c1c(N2CCOCC2)[nH]c(-c2ccccc2)nc1=S,-52%[inhibitor],-8,-2.4,5%,0.2,-3.5%

# Random excerpt: four records from the list
SMILES,gsp agonist,TRPML1 inh,Menin MLL FP FL,gsp antagonist,TRPML1 ag,ClpP mod
Cc1onc(-c2c(F)cccc2Cl)c1C(=O)N1CCc2ccccc2C1,4%,7,-4.3,?,-0.7,-1.7%
CC1(C)CC(=O)c2cc(C(=O)NNc3ccccc3)c(=O)n(-c3ccccc3)c2C1,11%[15.4 µM],8,-5.8,-28%,-0.6,·
O=C(Nc1ccccc1N1CCCC1)c1cc2ccccc2o1,-24%,2,-4.2,-26%,1.3,-12%
CNC(=S)c1cc(C(C)(C)C)c(O)c(C(C)(C)C)c1,?,·,3.4,-4%,·,1.2%

# New compounds follow:
SMILES,gsp agonist,TRPML1 inh,Menin MLL FP FL,gsp antagonist,TRPML1 ag,ClpP mod
COc1ccc(CCn2c(O)c(C=Nc3cccc(F)c3)c(=O)[nH]c2=O)cc1OC,-14%,-15,2.1,-6%,-0.4,·
COC(=O)[C@H](CCSC)NC(=O)Nc1cccc(C)c1C,-2%[15.4 µM],1,0.4,2%,0.0,·
CC(Sc1nn(-c2ccc(F)cc2)c(=S)s1)C(=O)c1c(N)n(C)c(=O)n(C)c1=O (configuration not stated),-7%,-6,·,?,0.8,-0.6%
O=C(/C=C/c1ccc2c(c1)OCO2)c1ccccn1,?,3,?,2%,1.9,·
COc1ccc(C)cc1NC(=O)CSc1nnc(-c2cc(C)[nH]n2)n1N,-33%[inhibitor],12,·,6%,-0.7,-0.1%
COc1ccc(CNC(=O)c2ccc3c(c2)NC(=O)C(C)S3)cc1 (configuration not stated),6%,-17,-1.1,4%,0.3,-1.3%
O=C(/C=C/c1ccccc1Cl)OCC(=O)N1CCc2ccccc21,-1%,-5,·,·,-1.0,-8.4%
COc1cc(NC(=O)C2CCN(S(=O)(=O)c3ccc(Cl)cc3)CC2)ccc1-n1cnnn1,-34%[inhibitor],12,5.9,-12%,0.9,-9.1%
O=C(O)CCc1ccc(-c2ccccc2)n1-c1cccc(O)c1,-43%,20,7.1,-1%,0.4,-12%
CCCCCc1ccc(-c2nnc(N)s2)cc1,0%,-18,-0.9,4%,0.0,·
CC(C)(C)c1nnc(N/N=C/c2ccc(O)cc2)n(N)c1=O,8%[15.4 µM],-2,5.0,12%,-0.5,-2.2%
CN(C)c1nc(N2CCN(c3ccccc3)CC2)c(C#N)c(=O)o1,-12%,23,2.8,-9%,-0.2,-0.2%
CCN(C(=O)COC(=O)c1cccnc1SC)c1c(N)n(Cc2ccccc2)c(=O)[nH]c1=O,-13%,-5,·,17%,0.3,0.5%
CCCCC1CCC(c2ccc(C(N)=O)cc2)CC1 (configuration not stated),-31%[inhibitor],-6,-1.1,9%,-1.0,-1.0%
O=C(NCC1CCCCC1)c1ccco1,14%,-18,2.2,3%,-0.4,-1.4%
Cc1cc(=O)oc2cc(OCC(=O)N3c4ccccc4CC3C)ccc12 (configuration not stated),2%,31,0.1,10%,4.9,?
CC(C)COC(=O)n1c(SCC(=O)N(C)C)nc2ccccc21,?,7,2.6,-14%,-0.7,0.9%
O=C(COc1ccc(Cl)cc1)Nc1cccc(-c2ccc(N3CCOCC3)nn2)c1,-7%,10,·,?,-0.4,-2.6%
COc1ccc(C(C(=O)NC(C)C)N(C(=O)CCC(=O)Nc2nccs2)c2ccccc2F)cc1 (configuration not stated),-1%[15.4 µM],-5,-0.9,-6%,1.1,·
C[C@@H](C(=O)Nc1ccc2ccccc2c1)[C@@H]1C[C@@]1(C)[C@@H](NC(=O)c1ccccc1)c1ccccc1,·,-17,0.5&-3.5,-11%,0.4,-6.0%
CCOc1cc(CNCCN(C)C)c(Cl)cc1OCC(=O)NCCc1ccccc1,-5%,-5,3.1,12%,-0.6,0.6%
O=C(CO)C(O)C(O)C(O)CO (configuration not stated),·,2,-1.2,1%,-0.3,0.2%
COc1ccccc1Nc1cc(N2CCOCC2)c2nonc2c1[N+](=O)[O-],3%,-4,0.9,3%,0.1,-2.8%
COc1ccc(C(=O)N2CC3(CC(c4cccc(NC(=O)CC(c5ccccc5)c5ccccc5)c4)=NO3)C[C@H]2C(N)=O)cc1 (some centres not stated),·,-6,0.3,2%,-0.3,-2.5%
COc1cc(OC)cc(C(=O)Nc2ccccc2C(=O)NCc2cccnc2)c1,3%,-13,0.7,-6%,0.7,·

# Screens deposited in PubChem by National Center for Advancing Translational Sciences (NCATS).
